High-throughput results deposited in PubChem BioAssay by Johns Hopkins Ion Channel Center.
KCNQ2 block: KCNQ2 channel blockers in CHO-K1 cells – cell-based, FluxOR thallium flux, B-score, primary screen (AID 2156); O88943; 20 min; active compounds read low; only compounds with negative scores are shown here; some inactives read as strong as hits; B-score at 10 µM; hit rate 1.1% among 310,000;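 active = fluorescence ratio B-score at most minus 3 library SDs, with starting brightness B-score within 2 library SDs, cut at about -5.5 in these data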
Target sequence (O88943 whole entry, looked up): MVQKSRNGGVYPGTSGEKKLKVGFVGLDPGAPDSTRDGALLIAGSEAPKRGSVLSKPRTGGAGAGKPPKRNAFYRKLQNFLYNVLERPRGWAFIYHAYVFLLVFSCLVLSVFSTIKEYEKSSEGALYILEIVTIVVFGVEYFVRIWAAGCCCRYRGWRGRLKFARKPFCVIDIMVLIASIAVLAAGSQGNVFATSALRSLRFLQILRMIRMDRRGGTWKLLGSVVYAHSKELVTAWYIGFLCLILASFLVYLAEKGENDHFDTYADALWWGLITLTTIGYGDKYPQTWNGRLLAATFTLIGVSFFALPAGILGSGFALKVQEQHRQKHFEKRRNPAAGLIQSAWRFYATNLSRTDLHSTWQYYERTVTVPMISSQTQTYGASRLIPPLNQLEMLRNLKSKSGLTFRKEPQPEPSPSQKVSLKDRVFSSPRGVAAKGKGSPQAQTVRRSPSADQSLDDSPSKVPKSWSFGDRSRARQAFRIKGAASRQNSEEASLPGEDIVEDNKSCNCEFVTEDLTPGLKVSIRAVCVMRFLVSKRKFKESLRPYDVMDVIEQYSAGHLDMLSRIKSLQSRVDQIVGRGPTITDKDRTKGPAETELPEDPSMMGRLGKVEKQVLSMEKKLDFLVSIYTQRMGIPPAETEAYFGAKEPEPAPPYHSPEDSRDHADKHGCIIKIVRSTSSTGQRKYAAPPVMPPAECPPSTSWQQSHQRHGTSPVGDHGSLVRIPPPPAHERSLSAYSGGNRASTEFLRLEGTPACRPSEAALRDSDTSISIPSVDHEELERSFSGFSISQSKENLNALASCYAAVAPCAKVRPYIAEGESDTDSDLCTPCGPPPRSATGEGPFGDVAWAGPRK
KCNQ2 block baseline: second read-out of KCNQ2 block, no call of its own (marks repeat the call); B-score; measured here: initial fluorescence intensity artifact check;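 brightness before thallium and not channel activity; 0 = typical well and far values either way flag optical interference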
Active calls of the source: *; i = inactive. Not all compounds are listed; the hit share may differ from the screen's.

Molecule | KCNQ2 block | KCNQ2 block baseline
Cc1ccc(NC(=O)C(C)OC(=O)c2ccc(NS(=O)(=O)c3ccc(F)c(F)c3)cc2)cc1 (configuration not stated) | i | 0.07
COc1cc(C2N(c3ccccc3)CCN2c2ccccc2)cc(OC)c1OC | i | 0.79
CCC1SC(CC)C(=O)N(CC(=O)NCCc2ccccc2)C1=O (configuration not stated) | i | 0.06
CCn1cc(CNC(=O)CCSc2nc(-c3ccco3)cc(C(F)(F)F)n2)cn1 | i | 0.02
COc1ccc(OC(=O)C(C)N2C(=O)c3ccccc3C2=O)cc1 (configuration not stated) | i | -1.6
CN(C)CCCN(C(=O)c1ccco1)c1nc2ccc(Br)cc2s1 | i | 0.25
Cc1ccc(S(=O)(=O)/N=C2/NC(=O)/C(=C/c3cccnc3)S2)cc1 | i | -1.1
CCOc1cc(/C=C2\C(=O)ON=C2c2ccccc2)ccc1OC | i | -2.6
CNC(=O)c1cc(-c2ccc(Cl)cc2)n(-c2ccccc2)n1 | i | -1.9
CCCc1c2c(cc3c(=O)cc(C(=O)OCC)oc13)CCCC2 | i | 0.64
Cc1cc(C(=O)CSc2nnc(-c3ccc(Cl)cc3)n2CC2CCCO2)c(C)n1C (configuration not stated) | i | -1.5
CC(Sc1nnc(CN2CCCC2)n1Cc1ccccc1)C(=O)Nc1ccc(F)cc1 (configuration not stated) | i | 0.12
CCCCn1c(N)c(N(CC(C)C)C(=O)CCCc2nc3ccccc3c(=O)[nH]2)c(=O)[nH]c1=O | i | 0.15
COc1ccc(C(CNC(=O)c2cccc(Br)c2)N2CCCC2)cc1 (configuration not stated) | i | 0.39
CC(=O)N/C(=C/c1ccc2c(c1)OCO2)C(=O)NCCCO | i | -1.1
COc1ccc(NC(=O)[C@@H]2CC=C[C@@H]3CCN(Cc4ccc(Cl)c(Cl)c4)C(=O)[C@@H]32)cc1 | i | -0.96
O=c1oc2ccccc2c(Nc2cc3ccccc3cc2O)c1[N+](=O)[O-] | i | 0.1
CCC1Oc2ccc(C)cc2N(CC(=O)N2CCN(c3ccc(F)cc3)CC2)C1=O (configuration not stated) | i | 1.4
CN(C)c1nc(Nc2ccc(F)cc2)nc(Oc2ccc(F)cc2)n1 | i | -0.61
Cc1cc2oc(=O)cc(CN(C)Cc3ccccc3)c2cc1C(C)C | i | 0.55
CCOc1ncnc2c1oc1nc(CC(C)C)c3c(c12)CC(C)(C)OC3 | i | 0.4
COc1ccc(NC2CCCN(C(=O)CCc3ccccc3F)C2)cc1 (configuration not stated) | i | 0.57
O=C(O)CCNS(=O)(=O)c1cccc(Br)c1 | i | 0.13
O=C1c2ccccc2-c2cccc(C(=O)N3CCCCCC3)c21 | i | 1.3
O=C(Nc1c2c(nn1-c1ccccc1)CS(=O)(=O)C2)C1CCCC1 | i | 1
CCN1CCN(C(=O)c2cc(-c3ccc(Cl)s3)nc3ccccc23)CC1 | i | -0.48
COC(=O)C1=C(C)NC2=C(C(=O)c3ccccc32)C1c1cccc(OC)c1 (configuration not stated) | i | -1.7
O=C(NCc1ccccn1)c1c(Cl)cccc1Cl | i | -0.42
COc1ccc(CN(C)CCc2ccccn2)cc1OC | i | 2.2
COc1ccc(CCNC(=O)c2ccc(SC)cc2OC)cc1 | i | -0.46
Cc1ccc(NC(=O)C(CC(C)C)NC(N)=O)cc1 (configuration not stated) | i | 0.13
N=C1c2ccccc2CN1c1ccc(S(=O)(=O)N2CCCCC2)cc1 | i | -2
Cc1ccc(-n2nc(-c3ccco3)cc2C(=O)O)c(C)c1 | i | 0.96
CCC(C(=O)Nc1ccc([N+](=O)[O-])cn1)c1ccccc1 (configuration not stated) | i | 1.2
CCC1CCCCN1C(=O)c1ccc2nc(Cc3ccc(OC)cc3)oc2c1 (configuration not stated) | i | -0.92
COC(=O)c1ccc(C23CC4(C2)[C@H](CN(C)[C@@H]4c2ccccc2)C3c2ccc(Cl)nc2)cc1 (some centres not stated) | i | -1.3
COc1ccc(CN2CCNC(=O)C2CC(=O)N(C)CC2CCOCC2)cc1OC (configuration not stated) | i | 1.4
CCNC(=S)N(CCc1ccc(OC)c(OC)c1)Cc1cc2cc(OC)ccc2[nH]c1=O | i | -1.8
CC(C)Nc1nc(NC(C)(C)C)nc(Oc2ccc(=O)n(-c3ccccc3)n2)n1 | i | 0.73
O=c1[nH]c(/C=C\c2ccc(O)c(O)c2)nc(O)c1[N+](=O)[O-] | i | -0.14
CN1CC(c2ccccc2Cl)C2(COc3ccccc3C2=O)C12C(=O)Nc1ccccc12 (configuration not stated) | i | -0.65
CCN(CC(=O)Nc1ccc(OC)c(Cl)c1)CC(=O)NC(C)C | i | 0.57
CC(=O)c1cccc(CN2CCN(Cc3ccc(C)cc3)C(CCO)C2)c1 (configuration not stated) | i | -0.67
Cc1ccc(OCC(=O)N(C)CC(=O)Nc2ccc(F)cc2)c([N+](=O)[O-])n1 | i | 0.52
Cc1ccc(C(C(=O)NC2CCCC2)N(C(=O)c2csnn2)C2CC2)cc1 (configuration not stated) | i | -2.4
Cc1ccccc1N1CC(=O)Nc2c(oc3nc(-c4ccccc4)cc(C)c23)C1=O | i | -1.1
CCN1CCN(S(=O)(=O)c2ccc(Cl)c(C(=O)Nc3ccccc3N3CCOCC3)c2)CC1 | i | -0.83
NS(=O)(=O)c1ccc(NC(=S)NCc2ccc(F)cc2)cc1 | i | -0.13

The closing 5 compounds of the section before are carried over, then new ones follow:
Molecule | KCNQ2 block | KCNQ2 block baseline
Cc1ccc(OCC(=O)N(C)CC(=O)Nc2ccc(F)cc2)c([N+](=O)[O-])n1 | i | 0.52
Cc1ccc(C(C(=O)NC2CCCC2)N(C(=O)c2csnn2)C2CC2)cc1 (configuration not stated) | i | -2.4
Cc1ccccc1N1CC(=O)Nc2c(oc3nc(-c4ccccc4)cc(C)c23)C1=O | i | -1.1
CCN1CCN(S(=O)(=O)c2ccc(Cl)c(C(=O)Nc3ccccc3N3CCOCC3)c2)CC1 | i | -0.83
NS(=O)(=O)c1ccc(NC(=S)NCc2ccc(F)cc2)cc1 | i | -0.13
Cc1ccc(N(C(=O)c2ccc(S(=O)(=O)N3CCCC3)cc2)C2C=CS(=O)(=O)C2)cc1 (configuration not stated) | i | 0.18
CCCCC(c1nnnn1Cc1ccco1)N1CCN(c2nc3ccccc3s2)CC1 (configuration not stated) | i | 0.02
O=C(c1ccc(F)cc1)n1c(=S)nc2ccccn21 | i | -0.21
O=[N+]([O-])c1ccc(C(O)CN=Cc2ccc(O)cc2O)cc1 (configuration not stated) | i | -2.3
CCC1CCCCN1C(=O)Nc1cc(Cl)ccc1OC (configuration not stated) | i | -0.65
CN1C(=O)c2cccc3c(N)ccc(c23)C1=O | i | 71
CCC(Sc1nc(N)c(NC(=O)c2ccc(OC)c(OC)c2)c(=O)[nH]1)C(=O)OC (configuration not stated) | i | -0.03
O=C1CN(C(=O)/C=C/c2ccc(Cl)cc2)c2ccccc2N1 | i | -0.61
CCCN1CCCC[C@H]1C(=O)Nc1c(C)cccc1C | i | 0.89
O=C(OCc1ccccc1)Oc1cncc(C(=O)O)c1 | i | -0.04
OCC[C@@H]1C[C@H](O)[C@@H](O)[C@]2(CCc3ccccc3CO2)O1 | i | 3.1
CC(=O)N1CCc2cc(Br)cc(S(=O)(=O)N3CCN(C(=O)c4ccco4)CC3)c21 | i | 0.07
COc1ccc(CNn2c(-c3cccs3)nc3ccccc3c2=O)cc1OC | -9.2* | 0.42*
CCOc1ccc(CCNC(=O)C2CCCN2C(=O)OCc2ccccc2)cc1OCC (configuration not stated) | i | 0.85
O=C(COc1ccc(Cl)cc1Cl)N1CCN(c2ccccn2)CC1 | i | -0.64
CC1CCC(N2CCN(S(=O)(=O)Cc3ccccc3)CC2)CC1 (configuration not stated) | i | 0.9
Cc1cc(C)cc(NC(=O)CSc2nccn2Cc2ccco2)c1 | i | 0.53
O=C(NCC1CCCO1)/C(=C\c1ccccc1F)NC(=O)c1ccccc1 (configuration not stated) | i | -3.3
O=C(N/N=C/c1ccco1)c1ccc2nc[nH]c2c1 | i | 0.52
O=C(/C=C\NCC(=O)c1ccccc1)c1ccc2ccccc2c1 | i | 0.02
COc1ccc(-c2cc3ccccc3n2CC(O)Cn2nc(C)cc2C)cc1 (configuration not stated) | i | 1.1
Cc1ccc(NC(=O)CS(=O)CC(=O)N2CCN(c3ccccc3)CC2)cc1 (configuration not stated) | i | 0.15
CCN1CCN(S(=O)(=O)c2ccc(Cl)c(C(=O)Nc3ccccc3N3CCCCC3)c2)CC1 | -5.6* | 0.46*
N#CCC(=O)Nc1ncn(Cc2ccccc2Cl)n1 | i | -0.35

Given with values under each structure: part of the list above.
Results follow in this order: KCNQ2 block, KCNQ2 block baseline
COc1ccc(-c2cc3ccccc3n2CC(O)Cn2nc(C)cc2C)cc1 (configuration not stated)
 : i, 1.1
CCN1CCN(S(=O)(=O)c2ccc(Cl)c(C(=O)Nc3ccccc3N3CCCCC3)c2)CC1
 : -5.6*, 0.46*
N#CCC(=O)Nc1ncn(Cc2ccccc2Cl)n1
 : i, -0.35
O=C(NCC1CCCO1)/C(=C\c1ccccc1F)NC(=O)c1ccccc1 (configuration not stated)
 : i, -3.3
O=C(COc1ccc(Cl)cc1Cl)N1CCN(c2ccccn2)CC1
 : i, -0.64
COc1ccc(CNn2c(-c3cccs3)nc3ccccc3c2=O)cc1OC
 : -9.2*, 0.42*

Next part:
Molecule | KCNQ2 block | KCNQ2 block baseline
CCN1CCN(Cc2ccccc2NC(=O)Nc2ccc(C)cc2)CC1 | i | -0.8
CCN(Cc1ccncc1)Cc1cn[nH]c1-c1cc(OC)c(OC)c(OC)c1 | i | 0.95
O=C(CSc1nnc(SCc2cccc3ccccc23)s1)N/N=C/C=C/c1ccccc1[N+](=O)[O-] | i | 0.34
CC(=O)Nc1ccc(S(=O)(=O)N(C)CC(=O)OCC(=O)NCc2ccco2)cc1 | i | 0.18
Cc1ccccc1C(=O)N1CCC(C(=O)Nc2nc3ccc(F)cc3s2)CC1 | i | -0.05
CC1CC(C)(C)CC2(C1)NC(=O)N(CC(=O)NCc1ccccc1F)C2=O (configuration not stated) | i | 1.1
COC(=O)[C@]1(C)CCC[C@@]2(C)C3CC[C@@]4(C)C[C@]3(CC[C@H]12)C[C@H]4O (some centres not stated) | i | -0.55
OC(COCc1ccccc1)CN1CCN(c2ccccc2F)CC1 (configuration not stated) | i | 2.6
CC(OC(=O)CCN=C1NS(=O)(=O)c2ccccc21)C(=O)Nc1ccc(N(C)C)cc1 (configuration not stated) | i | -0.76
COc1ccc(CCNS(=O)(=O)c2ccc3c(c2)CCN3C(=O)CCC(=O)O)cc1OC | i | -1.4
COc1ccc(CNC(=O)CCC(=O)N2CCN(S(=O)(=O)c3ccc(Cl)cc3)CC2)cc1 | i | 0.3
Nc1c(-c2ccccc2)n[nH]c1-c1ccccc1 | i | -0.08
COc1ccc(OC)c(-c2cc(C(F)(F)F)c3c(n2)sc2c(O)cc(=O)[nH]c23)c1 | i | -1.8
COc1ccc(C(=O)NC(=S)Nc2ccccc2N2CCOCC2)cc1Br | i | 0.02
O=S(=O)(c1cc(Cl)ccc1Cl)N1CC2CCCN2c2ccc(C(F)(F)F)cc21 (configuration not stated) | i | -0.67
COC(=O)C1C2C=CC3(CN(Cc4ccco4)C(=O)C13)O2 (configuration not stated) | i | 0.61
CC(=O)Nc1ccc(-c2sc(Nc3cccc4ccccc34)n[n+]2-c2ccccc2)cc1 | i | 1
COc1ccc(/C=C2\C(=N)N3N=C(CC(=O)N4CCOCC4)SC3=NC2=O)cc1 | i | 1
CC(=O)C(Cc1ccc(Cl)nc1)Cc1ccc(Cl)nc1 | i | -0.02
COc1cccc(C(=O)NC(=S)Nc2ccccc2N2CCCC2)c1 | i | 0.11
COc1ccccc1NC(=O)NCC(c1ccco1)N1CCCCC1 (configuration not stated) | i | -1.2
Cc1ccc2cc(CN(c3ccc(C)c(C)c3)S(C)(=O)=O)c(=O)[nH]c2c1 | i | 0.98
CC(NC(=O)C1CCC(=O)N1Cc1ccccc1Cl)c1ccccc1 (configuration not stated) | i | -1.7
CCCS(=O)(=O)N1CCCC(C(=O)NCCCN(Cc2ccccc2)C(C)C)C1 (configuration not stated) | i | 1.9
CCN(Cc1ccccc1)C(=O)c1cc2c(=O)oc3ccc(C)cc3c2s1 | i | -1.7
Cn1c[n+](C)cc1-c1ccc(/C(N)=N/O)cc1 | i | 0.52
CC(=O)Nc1ccc(S(=O)(=O)N2CCN(c3cc(C)nc4ccccc34)CC2)cc1 | i | -1.6
C=CCN1C(=O)C2C3C=CC(C2C1=O)C1C2C(=O)N(CC=C)C(=O)C2C31 (configuration not stated) | i | -0.06
Cc1ccc(CNC(=O)c2cc3c(s2)CS(=O)(=O)C3)cc1 | i | -0.28
O=C(COC(=O)c1cc([N+](=O)[O-])ccc1N1CCOCC1)Nc1c(Cl)cccc1Cl | i | 0.15
CCOC(=O)C1CCCN(Cc2nc3ccc([N+](=O)[O-])cc3c(=O)n2-c2ccc(OC)cc2OC)C1 (configuration not stated) | i | 1.1
CSCCC(NC(=O)c1cccc(S(=O)(=O)N2CCOCC2)c1)C(=O)Nc1ccc(F)cc1 (configuration not stated) | i | 1
CNC(=O)N(O)C1N(C)C(=O)N(CC(=O)OC)C1(C)C (configuration not stated) | i | 0.3
Cc1ccc(NC(=O)CCC(=O)c2cccs2)cc1 | i | -0.01
Cc1ccc(Sc2ccc(CN3CCCCC3)cc2[N+](=O)[O-])cc1 | i | -0.17
COc1cc(-c2nc(Cc3c(F)cccc3Cl)no2)cc(OC)c1OC | i | 2.2
CCC(C)COC(c1ccccc1)(c1ccccc1)C(Oc1nc(C)cc(C)n1)C(=O)O (configuration not stated) | i | -0.03
COC(=O)c1c(NC(=O)c2ccc(N(C)S(=O)(=O)c3ccc(C)cc3)cc2)sc2c1CCCC2 | i | 0.12
